Screens: PubChem BioAssay, National Center for Advancing Translational Sciences (NCATS)
D2 PAM = Beta-Arrestin HTS for Positive Allosteric Modulators of the Human D2 Dopamine Receptor: Potentiators. potentiation, % (no concentration beside the values). DiscoveRx D2 beta-arrestin cells, luminescence, 90 min; 100% = 57 uM dopamine signal. 360,000 compounds, 0.23% hits; active = potentiation of 50% or more; inconclusive = 30% to 50%; inactive = 30% or less;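 further: compound concentration not given in the record; tested on top of an EC20 dose of dopamine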
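D2 cells co-treated with compound plus 50 nM dopamine (EC20) for 90 min at 37 deg C to detect potentiation. Beta-arrestin recruitment was read as enzyme-fragment luminescence after 1 h at ambient temperature. Full response was set by 57 uM dopamine.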
D2 agonist = Beta-Arrestin HTS for Positive Allosteric Modulators of the Human D2 Dopamine Receptor: Agonists; AID 624465, 2012; 360,000 compounds, 0.084% hits; activation, % (concentration not given with the values); DiscoveRx PathHunter D2 beta-arrestin, luminescence, 90 min; 100% = 57 uM dopamine signal; in the data active = activation above about 40%; inconclusive = about 15% to 40%; inactive = below about 15%; further: the text of the record calls up to 30% inactive
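DiscoveRx PathHunter D2 beta-arrestin cells (2,100/well) attached overnight, then compound-stimulated 90 min at 37 C in HBSS/10 mM HEPES/0.1% Tween-20 buffer; beta-galactosidase complementation read by luminescence after 1 h at ambient temperature. Dopamine 57 uM final (EC100) as control.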
CtBP-E1A inh = qHTS Assay for Inhibitors of the CtBP/E1A Interaction | CtBP / adenovirus E1A interaction (AlphaScreen) | AlphaScreen GST-E1A/His-CtBP binding, 1536-well; active compounds read low; control for the full effect not named in the record | activity change, % (concentration not given with the values) | 340,000 compounds, 0.49% hits; in the data active means activity change below about -65%; inconclusive means about -30% to -65%; inactive means above about -30%; further: on the % scale 0 is the no-effect control and ±100 the full control effect
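GST-E1A and His-tagged CtBP (125 nM each as 5X stock) were preincubated with pin-transferred compound for 2 h at 37 °C in the dark, then glutathione donor and nickel acceptor beads were added for 1 h before AlphaScreen reading.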
PINK1 expr mod = A Quantitative High throughput Screen to Identify Chemical Modulators of PINK1 Expression | PINK1 immunofluorescence, high-content cytometry, 24 h | Potency, µM (top dose mostly 76.6 µM), for the others: top-dose activation (PINK1 increase), hits mostly activators | 410,000 compounds, 0.2% hits; active = well fitted activation curve with a large enough effect; inconclusive = small, poorly fitted or top-dose-only effect; inactive = flat fitted curve, though single readings scatter; cell line not stated here;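 further: potency means the concentration at half of the fitted maximal effect; % of control where 0% means no effect; nearly all actives have a fitted effect of over 65% in size; a mitochondrial uncoupler was the plate control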
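Stable cell line, 250 cells/well, 12 h attachment; compounds pinned at 5 concentrations, 24 h; CCCP control. Fixed with nuclear dye, primary antibodies 12 h at 10 degrees C, secondary plus cell stain; laser-scanning cytometer read.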
Sfp inh = qHTS Assay for Inhibitors of Bacillus subtilis Sfp phosphopantetheinyl transferase (PPTase). 4'-phosphopantetheinyl transferase ffp (Bacillus subtilis), Q9F4F7. Biochemical Sfp PPTase activity, qHTS. Potency, µM, without a hit: max response, negative = inhibition, actives largely listed as inhibitors. 310,000 compounds, 3.5% hits. AID 1490, 2009; active means well fitted inhibition curve with a large enough effect; inconclusive means small, poorly fitted or top-dose-only effect, or another doubt; inactive means no such curve, though single readings can be large or run the other way;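 further: the enzyme is Sfp with the accession as filed and its product quenches rhodamine fluorescence; potency means the concentration at half of the fitted maximal effect; 0% = enzyme reaction without inhibitor and -100% = no enzyme wells; top concentration of the series not given in the record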
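Compounds were incubated with enzyme (final 15 nM) for 15 min at room temperature before substrate addition started the reaction. Fluorescence at 525 nm excitation, 598 nm emission was recorded immediately and after 30 minutes.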
TRPV1 potentiator = HTS Assay for Compounds that Act as Potentiators of the Vanilloid Receptor 1; Transient receptor potential cation channel subfamily V member 1 (Homo sapiens), Q8NER1; potentiation, % at 8.33 µM; 320,000 compounds, 0.02% hits; TRPV1-expressing cells, Fluo-8 calcium influx, capsaicin EC20 potentiation; host cell line not named in the record; control for the full effect not named in the record; AID 540277, 2011; active means potentiation above 80%; inconclusive means 30% to 80%; inactive means below 30%; further: 0% is about no effect
Target sequence (Q8NER1 whole entry, looked up): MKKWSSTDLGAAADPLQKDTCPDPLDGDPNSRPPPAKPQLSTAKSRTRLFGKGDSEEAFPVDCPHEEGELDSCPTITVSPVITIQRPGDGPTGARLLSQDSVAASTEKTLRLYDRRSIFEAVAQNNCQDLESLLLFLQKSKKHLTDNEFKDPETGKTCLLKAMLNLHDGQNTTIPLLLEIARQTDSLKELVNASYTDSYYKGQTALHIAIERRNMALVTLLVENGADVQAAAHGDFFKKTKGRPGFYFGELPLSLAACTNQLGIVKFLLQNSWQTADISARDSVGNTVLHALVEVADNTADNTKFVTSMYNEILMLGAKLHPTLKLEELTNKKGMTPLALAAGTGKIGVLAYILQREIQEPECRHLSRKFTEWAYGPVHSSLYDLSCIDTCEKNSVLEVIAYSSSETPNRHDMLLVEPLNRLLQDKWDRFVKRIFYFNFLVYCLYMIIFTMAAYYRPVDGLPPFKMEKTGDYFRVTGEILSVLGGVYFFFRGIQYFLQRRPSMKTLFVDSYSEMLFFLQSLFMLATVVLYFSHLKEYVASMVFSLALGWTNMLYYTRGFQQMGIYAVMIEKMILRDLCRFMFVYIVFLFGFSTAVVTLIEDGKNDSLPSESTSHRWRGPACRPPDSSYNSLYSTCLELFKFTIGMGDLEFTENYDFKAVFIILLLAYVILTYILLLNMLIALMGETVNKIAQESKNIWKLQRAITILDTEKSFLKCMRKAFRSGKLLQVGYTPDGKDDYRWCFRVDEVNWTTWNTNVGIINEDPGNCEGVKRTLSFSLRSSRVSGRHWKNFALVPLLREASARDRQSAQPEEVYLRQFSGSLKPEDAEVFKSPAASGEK
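TRPV1-expressing cells were cultured overnight at 35.5C and loaded with Fluo-8 calcium dye for 40 to 90 min at room temperature. After a 10 s baseline, compound was added and calcium influx was read kinetically for 3 min (ex 480/em 520 nm).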
Six1-Eya2 inh = qHTS Assay for Inhibitors of the Six1/Eya2 Interaction; AlphaScreen GST-Six1/His-Eya2 binding, biochemical; active compounds read low; control for the full effect not named in the record; Homeobox protein SIX1 (Homo sapiens) + Protein phosphatase EYA2 (Homo sapiens), …; 360,000 compounds, 0.56% hits; activity change, % (no concentration beside the values); in the data active = activity change below about -65%; inconclusive = about -30% to -65%; inactive = above about -30%; further: on the % scale 0 is the no-effect control and ±100 the full control effect
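AlphaScreen luminescence read after one hour at 37 °C in darkness. Pin-transferred compounds met GST-Six1 and His-Eya2 protein (5X stock 250 nM/500 nM) plus glutathione donor and Ni-chelate acceptor beads (5X, 50 ug/mL).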
Starred values were filed as active, the others as inactive; ? = inconclusive; nt = no result given; & = joins results of further samples; [ ] = remark or other dose.

Values in the order – Sfp inh, CtBP-E1A inh, D2 agonist, TRPV1 potentiator, PINK1 expr mod, Six1-Eya2 inh, D2 PAM
> O=C(Nc1ccc(O)cc1)c1cc2ccccc2c(=O)s1
    -18%, -15, -1.6, -10, 0.9%, -10, -20
> Cc1cc2nc(/C(C#N)=C\c3ccc(-c4ccccc4C(=O)O)o3)[nH]c2cc1C
    -3%, -10, 9.0, -11, 1.6%, -4, 0
> C=CCn1cc(C(=O)N2CCc3ccccc3C2)c(=O)c2cc(S(=O)(=O)N(CC)CC)ccc21
    -21%, 8, -4.4, -5, 11%, 1, -15
> CSc1ncccc1C(=O)OCC(=O)NC1CCCCC1
    nt, 7, 8.1, -13, -1.0%, 2, -3
> O=C(Nc1ccc2c(c1)C(=O)NC2=O)c1ccc(S(=O)(=O)N2CCCC2)cc1
    17%, ?, -0.5, -9, ?, -14, 0
> C[C@]12CCC3c4ccc(OCC(=O)O)cc4CCC3C1CCC2=O (stereo partly drawn)
    17%, nt, -5.6, 30, 0.2%, 6, -14
> COC(=O)CCC(=O)OC1(C)C(=O)C=C2C=C(C3CC3)N(Cc3ccc4c(c3)OCO4)C=C2C1=O (stereo not drawn)
    -12%&-21%, -2, 8.7, -5, 2.1%, -8, 73*
> S=C(NN=C1CCCCCC1)Nc1ccc(Cl)cc1
    -5%, 6, 1.3, 0, 3.4%[38.3 µM], 0, 0
> CC(C)n1c(=S)[nH]c2cc(C(F)(F)F)ccc21
    10%, -1, 1.2, -2, 3.6%, 2, 6
> COc1ccc(NC(=O)NCc2ccc3c(c2)OCO3)cc1
    0%, -13, 3.7, -19, 4.5%, 7, 1
> O=C(NCCCn1ccnc1)Nc1cccc2ccccc12
    10%, 4, 1.5, 5, 3.0%, -1, -19
> Cc1ncoc1C(=O)N1CCc2c([nH]c3ccccc23)C1C1CCCCC1 (stereo not drawn)
    -17%, -26, 0.9, -6, -1.0%, -10, -2
> FC(F)(F)c1cc(-c2ccccc2)nc(NCc2cccnc2)n1
    2%, 0, -0.6, -3, 0.3%, 7, 6
> O=C(COC(=O)c1cccc(S(=O)(=O)N2CCOCC2)c1)NC1CCCCC1
    nt, 2, -0.8, nt, 1.3%, 11, 1
> C/C(=N\NC(=O)CC(C)C)c1ccc(N2CCCCC2)cc1
    11%, -1, -1.8, 0, 1.9%, -1, 1
> CCSc1nnc(NC(=O)c2c(C)noc2C)s1
    12%, 4, -3.7, 8, -0.3%, 0, -13
> Cc1cc(OCC(O)CN)ccc1Cl (stereo not drawn)
    -22%, -17, -4.6, -1, 0.4%, -1, -2
> CC(=O)c1c(O)c(C)c(O)c2c1OC1=CC(=O)C(C(C)=O)C(=O)[C@@]12C (stereo partly drawn)
    22%&-9%, 11, -2.4, 1, 1.1%, 5, -4
> CC1CCCCC1NS(=O)(=O)c1ccc(S(=O)(=O)N2CCCC2)cc1 (stereo not drawn)
    -2%, 4, -0.2, -15, -5.6%[38.3 µM], 5, -7
> CCCCCCc1cc2cc(C(=O)NCc3ccccc3)c(=N)oc2cc1O
    20%, 6, 4.9, -8, 6.0%, 6, 0
> CCC(C)NS(=O)(=O)c1cc2c3c(c1)CCC(=O)N3CCC2 (stereo not drawn)
    9%, nt, -6.0, 1, -0.8%, -1, -6
> CCOc1ccccc1C(=O)OCC(=O)Nc1ccc(OC(F)F)cc1
    -8%, 9, -2.1, -5, 9.2%[38.3 µM], 6, -10
> CCNc1nc(NC(C)C)nc(NC(C)(C)C)n1
    6%, 2, -2.0, 3, 10%, 1, -3
> COc1ccc(-c2c(C)oc3c(CN4CCN(C)CC4)c(O)ccc3c2=O)cc1
    16%, 3, -1.9, -32, 0.2%, 7, -10
> CC(=O)Cn1nnc2sc3c(c2c1=O)CCC(C(C)(C)C)C3 (stereo not drawn)
    -25%, 9, -2.5, -15, 4.5%, 0, -20
> CC1CCN(C(=O)C2CC(c3ccc(F)cc3)=NO2)CC1 (stereo not drawn)
    18%, 4, -3.1, -4, 1.5%[38.3 µM], 4, 0
> CC(=O)NC(CC(C)C)C(=O)NC(=O)NCc1ccccc1 (stereo not drawn)
    8%, 6, -4.3, -14, 0.7%[38.3 µM], 4, -13
> CCCN1CCN(CCCNC(=O)C2CCCN(c3nnc(-n4cccc4)s3)C2)CC1 (stereo not drawn)
    5%, 0, -3.8, 3, -1.6%, -4, -13
> Cn1nnc(NC(=O)CSc2nnnn2-c2ccc(F)cc2)n1
    11%, -1, -0.5, -19, 3.3%, -1, -3
> COc1ccccc1CC(=O)Nc1ccccc1O
    9%, 0, -1.2, 4, -1.4%[38.3 µM], 0, 1
> CCCC(=O)Nc1ccc(Sc2ccc([N+](=O)[O-])cc2)cc1
    -3%, -2, 2.9, -6, 0.1%, -2, 1
> COc1ccccc1-c1nnc(NC(=O)c2ccc(S(=O)(=O)N(C)CC3CCCO3)cc2)o1 (stereo not drawn)
    20%, 0, -1.2, 8, -0.3%, ?, -12
> Cc1c(CN2CCCC(C(=O)c3cccc(Cl)c3)C2)c(=O)n(-c2ccccc2)n1C (stereo not drawn)
    15%, 0, -2.8, 8, -2.1%, 5, -39
> COc1cc2oc(=O)cc(CN3CCN(c4ccccc4F)CC3)c2cc1Cl
    nt, -24, -2.5, nt, 4.5%, 11, -9
> CO/N=C/C(=N\Nc1ccc(OC)cc1)C(=O)c1ccc(F)cc1
    -9%, nt, 2.7, ?, 3.5%, 1, -4
> O=C(Nc1ccc([N+](=O)[O-])cc1)C1CC12CCC2 (stereo not drawn)
    1%, 3, -6.3, -13, -0.8%, 13, -8
> CC1(C)C2CCC1(C(=O)O)c1nc3ccccc3nc12 (stereo not drawn)
    9%, 7, -3.7, -7, 0.9%, 1, -1
> CCn1c(SCC(=O)Nc2ccccc2C)nnc1-c1ccccc1O
    6%, 2, -4.5, 7, ?, -2, 7
> CC(C)C[C@H]1CNC(=S)N1C[C@H]1CCCN1C[C@H](Cc1ccc(O)cc1)N1C[C@H](Cc2ccc(O)cc2)N(CC2CCCCC2)C1=S
    nt, -5, -3.0, nt, 8.9%, -16, -10
> Cc1nc2nc[nH]n2c(=O)c1NC(=O)c1cccc(OCC(C)C)c1
    27%, -1, -2.6, 2, -2.2%, -8, 7

Reprinted from the part before: three entries; new compounds follow.
Values in the order – Sfp inh, CtBP-E1A inh, D2 agonist, TRPV1 potentiator, PINK1 expr mod, Six1-Eya2 inh, D2 PAM
> CCn1c(SCC(=O)Nc2ccccc2C)nnc1-c1ccccc1O
    6%, 2, -4.5, 7, ?, -2, 7
> CC(C)C[C@H]1CNC(=S)N1C[C@H]1CCCN1C[C@H](Cc1ccc(O)cc1)N1C[C@H](Cc2ccc(O)cc2)N(CC2CCCCC2)C1=S
    nt, -5, -3.0, nt, 8.9%, -16, -10
> Cc1nc2nc[nH]n2c(=O)c1NC(=O)c1cccc(OCC(C)C)c1
    27%, -1, -2.6, 2, -2.2%, -8, 7
> Cc1cc(NCCO)c2ccccc2n1
    12%, -2, -3.1, 7, -1.4%, -5, -7
> O=C(CSc1nnc(Cn2nnc3ccccc32)o1)Nc1cccc(Cl)c1
    10%, -2, -0.6, 9, -4.3%, -2, -3
> COc1ccc(OC)c(NC(=O)CSc2ccc3ccccc3c2)c1
    -8%, -11, -2.7, 20, 3.4%, -22, -4
> COC(=O)CCC/C=C1/SCC(NC(=O)c2ccccc2)/C1=N/O (stereo not drawn)
    11%, 3, -1.1, 28, -0.5%, 7, -1
> CCC(=O)Nc1cc(C(=O)OC(C(=O)c2ccc(C)c(C)c2)c2ccccc2)ccc1C (stereo not drawn)
    4%, -21, -4.5, 1, 2.4%, -7, -15
> Cc1ccccc1N1C(=O)C2ON(c3ccccc3)C(c3ccco3)C2C1=O (stereo not drawn)
    ?, nt, 2.5, 5, -0.6%, 1, 1
> CCOC(=O)c1ccc(COC(=O)c2cc3ccccc3oc2=O)o1
    1%, 8, -3.6, -16, 4.4%, 4, 3
> CCc1ccc(C(=O)NNC(=O)OC)cc1
    0%, -2, -4.4, -2, -0.6%, 2, 0
> Cc1ccccc1Nc1nnc(SCC(=O)NCC2CCCO2)s1 (stereo not drawn)
    nt, -1, -3.4, nt, 1.7%, 1, -9
> O=C(Nc1ccccc1)C1=C[C@@H](c2ccccc2)C[C@@H](OCc2ccc(CO)cc2)O1
    -4%, -17, -2.3, 7, 1.2%, -3, -14
> C[C@H]([C@H](O)c1ccccc1)N(C)C(=O)CN
    -7%, -1, -0.7, 0, 0.2%, -4, 0
> COc1ccccc1CC(=O)Nc1ccc(S(=O)(=O)N2CC(C)CC(C)C2)cc1 (stereo not drawn)
    nt, -12, -2.3, 5, 4.4%, -7, 1
> Cc1nn2c(-c3ccco3)nnc2c2ccccc12
    5%, -20, -0.6, 5, nt, -18, -18
> CCCn1c(SCC(=O)Nc2cc(S(=O)(=O)N3CCOCC3)ccc2Cl)n[nH]c1=O
    ?, 2, -2.7, -5, -1.7%, 5, 0
> CC1CCC2(CC1)N=C(N)Nc1nc3ccccc3n12 (stereo not drawn)
    -25%, -8, -1.8, 14, -0.9%, -2, -21
> S=C(NCCc1ccccc1)Nc1ccccc1N1CCOCC1
    0%, 0, -5.0, -41, 0.6%, -3, -7

Hits appear at their usual frequency; overall some 3.7% were active at least once.
